TRPML1 ag – agonists of human TRPML1 channel. AID 624414. actives 0.12% (n = 410,000). TRPML1-expressing cells, Ca2+ dye fluorescence, FDSS; host cell line not named in the record; reference of the full effect not given here. activation, % (no concentration beside the values). Q9GZU1; in the data active = activation above about 50%; inconclusive = about 30% to 50%; inactive = below about 30%; also: 0% is about no effect; the text of the record puts the active cut at 80%
Target sequence (Q9GZU1 whole entry, looked up): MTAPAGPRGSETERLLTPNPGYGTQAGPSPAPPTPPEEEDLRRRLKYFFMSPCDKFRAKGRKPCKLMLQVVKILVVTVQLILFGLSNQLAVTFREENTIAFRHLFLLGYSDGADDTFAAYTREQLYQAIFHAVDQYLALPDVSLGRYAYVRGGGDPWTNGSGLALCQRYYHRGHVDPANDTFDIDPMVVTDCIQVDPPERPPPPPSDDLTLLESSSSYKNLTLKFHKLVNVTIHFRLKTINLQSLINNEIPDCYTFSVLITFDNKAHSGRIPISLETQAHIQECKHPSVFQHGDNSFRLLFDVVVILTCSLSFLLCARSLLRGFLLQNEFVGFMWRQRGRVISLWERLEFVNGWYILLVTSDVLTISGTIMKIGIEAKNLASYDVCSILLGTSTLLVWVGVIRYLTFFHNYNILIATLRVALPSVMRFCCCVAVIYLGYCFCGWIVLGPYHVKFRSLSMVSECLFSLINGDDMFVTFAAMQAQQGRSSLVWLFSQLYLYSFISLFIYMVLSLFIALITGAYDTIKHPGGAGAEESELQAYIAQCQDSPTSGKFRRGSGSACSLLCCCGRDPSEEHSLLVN
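Cells: TRPML1-DL, 1X Tet inducer, ~16 h at 37 degrees C/5% CO2. Dye: ABD Ca8 no-wash + quencher, 45-90 min RT. Read: 10 s baseline, compound add, 110 s agonist phase; 54-4 EC80 (4uM final), 110 s antagonist phase.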
gsp agonist – agonists of gsp mutant (McCune-Albright syndrome); gsp mutant cells, cAMP HTRF, 30 min; control for the full effect not named in the record; Potency, µM (top dose mostly 76.9 µM), without a hit: top-dose activation (cAMP increase), actives largely listed as activators; actives 0.13% (n = 340,000); AID 624287; active = well fitted activation curve with a large enough effect; inconclusive = small, poorly fitted or top-dose-only effect, or another doubt; inactive = no such curve, though single readings can be large or run the other way; cell line not stated here;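 also: phosphodiesterase inhibitor Ro 20-1724 added with compounds to block cAMP breakdown; potency is read from the fitted curve at half-maximal effect; nearly all actives have a fitted effect of over 60% in size; about a fifth of the inactives were tested at one dose only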
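Cells in DMEM/10% FBS with G418 were pretreated with compounds in DMSO plus […] (300 uM stock) for 30 min at 37C. cAMP was measured by HTRF (cAMP-d2 plus anti-cAMP antibody-K) after 30 min at room temperature.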
ClpP mod – qHTS Assay for Activators of ClpP; actives 1.9% (n = 340,000); purified B. subtilis ClpP, FRET peptide cleavage, 20 min; ATP-dependent Clp protease proteolytic subunit (Bacillus subtilis (strain 168)), P80244; Potency, µM (titrated, usually from 57.5 µM), inactives show at the top dose activity change, negative = active; active = well fitted falling curve with a large enough effect; inconclusive = small, poorly fitted or top-dose-only effect; inactive = no such curve, though single readings can be large or run the other way; also: potency is read from the fitted curve at half-maximal effect; the source files actives as falling curves though it sought activators and does not explain the sign; nearly all actives have a fitted effect of over 65% in size; many hits overshoot -100%
Target sequence (P80244 whole entry, looked up): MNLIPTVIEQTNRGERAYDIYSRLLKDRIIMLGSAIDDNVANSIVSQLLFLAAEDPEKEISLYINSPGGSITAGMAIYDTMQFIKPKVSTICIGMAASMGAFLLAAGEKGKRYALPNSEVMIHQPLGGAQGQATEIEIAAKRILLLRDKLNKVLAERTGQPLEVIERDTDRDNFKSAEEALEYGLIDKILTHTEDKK
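Purified B. subtilis ClpP, 10 microg/mL final in Tris/HCl pH8 with KCl, BSA, glycerol and Tween-20, cleaved an Abz/nitrotyrosine-quenched decapeptide. Fluorescence (ex 320, em 430) was read at 0 and 20 min at room temperature. Delta was normalized to 5.8 microM ADEP and DMSO/no-enzyme controls.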
gsp antagonist – gsp mutant antagonism | actives 0.4% (n = 340,000) | Potency, µM (titrated, usually from 76.9 µM), without a hit: at the top dose activity change, negative = inhibition, hits mostly inhibitors | AID 624288 | gsp-mutant cells, cAMP HTRF, 30 min; control for the full effect not named in the record; active = falling curve of any shape with a large fitted effect; inconclusive = falling curve, mostly with a smaller effect; inactive = flat or rising curve; cell line not stated here;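 also: intracellular cAMP measured with PDE inhibitor Ro 20-1724 present during compound exposure; potency is read from the fitted curve at half-maximal effect; % is scaled to controls: 0 for no effect and ±100 for the full control effect; nearly all actives have a fitted effect of over 65% in size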
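HTRF cAMP measurement after 30 min RT detection following 30 min, 37C compound treatment alongside […] (added as 300 uM solution) in G418-selected cells seeded at 2000/well and grown 16–24 h.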
Menin-MLL FL inh – inhibitors of human menin-MLL interaction, wild-type MLL peptide. FP activity change, % at 61.4 µM. Fluorescence polarization, fluorescein-MLL peptide displacement from menin. 290,000 tested, under 10 active; inconclusive = falling polarisation curve, or a change in total fluorescence; inactive = total fluorescence flat and polarisation flat or rising; no compound was filed as active; the % refers to the polarisation; negative = inhibition;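 also: % of control where 0% means no effect; inhibitors lower the polarisation; unlabelled MLL peptide was the positive control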
TRPML1 blocker – human mucolipin-1 channel inhibition. actives 0.02% (n = 390,000). TRPML1-inducible cells, Ca2+ dye fluorescence, FDSS; hits give low values; inhibition of EC80 agonist-evoked calcium signal. Q9GZU1. activity change, negative = inhibition, % (test concentration not listed); in the data active means activity change below about -50%; inconclusive means about -30% to -50%; inactive means above about -30%;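 also: stimulus is agonist 54-4 at its EC80 concentration; % is scaled to controls: 0 for no effect and ±100 for the full control effect; compound concentration not given in the record; the text of the record puts the active cut at -80%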
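Tet-induced TRPML1-DL cells loaded with Ca8 no-wash calcium dye were read kinetically on FDSS. Compound addition was followed by EC80 agonist 54-4 (4 uM final); inhibition was read over 110 s.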
Numbers without * were called inactive; & = joins results of further samples; [ ] = dose if it differs, or a comment.

For NNC(=O)CCN1CCN(C(c2ccccc2)c2ccccc2)CC1 the results were TRPML1 ag -0.1, gsp agonist 0%, gsp antagonist 2%, Menin-MLL FL inh -7.1 and TRPML1 blocker -7.
Screening O=C(O)c1cc(N(Cc2ccccc2O)Cc2ccccc2O)ccc1O returned TRPML1 ag 0.9, Menin-MLL FL inh -7.2 and TRPML1 blocker -2.
Cc1cc(-n2c(C)cc(C(=O)CSc3ncnc4ccccc34)c2C)no1 was read as TRPML1 ag 0.1, gsp agonist 18%, ClpP mod -4.5%, gsp antagonist inconclusive, Menin-MLL FL inh 3.0 and TRPML1 blocker -6.
`CCOc1ccc(CC(=NCCO)C2=C(O)CC(C)(C)CC2=O)cc1OCC` gave TRPML1 ag -0.5, gsp agonist -15%, ClpP mod 2.2%, gsp antagonist 12%, Menin-MLL FL inh 0.8 and TRPML1 blocker 2.
COc1cc(NC(=O)N[C@H](C(=O)O)C(C)C)cc(OC)c1 was read as TRPML1 ag 2.2, gsp agonist 29%, ClpP mod 1.9%, gsp antagonist 11%, Menin-MLL FL inh -1.4 and TRPML1 blocker -6.
`O=[N+]([O-])c1ccc(Nc2ccc3ccccc3c2)nc1` gave TRPML1 ag 1.4, gsp agonist -22%, ClpP mod 0.7%, gsp antagonist 7%, Menin-MLL FL inh 3.2 and TRPML1 blocker 4.
`CN1C(=O)/C(=C/c2ccc(O)c([N+](=O)[O-])c2)N(C)C1=S` gave TRPML1 ag 1.5, gsp agonist inconclusive, ClpP mod 1.3%, gsp antagonist -12%, Menin-MLL FL inh 22 and TRPML1 blocker 7.
For N#Cc1c(NC(=O)c2ccccc2)sc2c1CCCCC2 the results were TRPML1 ag -0.9, gsp agonist 13%, ClpP mod -14%, gsp antagonist -6%, Menin-MLL FL inh 0.5 and TRPML1 blocker 3.
N#Cc1ccc(NC(=O)c2sc3cc(C(F)(F)F)cnc3c2-c2cccs2)cc1 was read as TRPML1 ag 0.4, gsp agonist 30%, ClpP mod 57%, gsp antagonist -19%, Menin-MLL FL inh 1.1 and TRPML1 blocker 7.
`CCC1CCCCN1C(=O)CSc1nnc(CNC(=O)COc2ccc(Cl)cc2)o1` (configuration not stated) gave TRPML1 ag 2.7, gsp agonist inconclusive, ClpP mod -2.5%, gsp antagonist -7%, Menin-MLL FL inh -0.5 and TRPML1 blocker -12.
Screening CCOC(=O)Cc1cc(=O)n2[nH]c(C)c(-c3ccc(Cl)cc3)c2n1 returned TRPML1 ag -0.3, gsp agonist -39%, ClpP mod inconclusive, gsp antagonist -3%, Menin-MLL FL inh 5.6 and TRPML1 blocker -5.
`Cc1ccc2nc(CSc3nnc(-c4ccncc4)n3C)cc(=O)n2c1` gave TRPML1 ag -1.0, gsp agonist 0%[15.4 µM], gsp antagonist 14%, Menin-MLL FL inh -0.3 and TRPML1 blocker 9.
Screening CCOc1cc(CNC(=O)CN2CCSc3ccccc32)cc(OCC)c1OCC returned TRPML1 ag 3.0, ClpP mod 0.1% and TRPML1 blocker -2.
COc1cc2c(cc1OC)C(O)=CC(=O)C2=O was read as TRPML1 ag -0.3, gsp agonist 21%, ClpP mod 6.3% and TRPML1 blocker -23.
Screening COc1ccc(NC(=O)CCSc2ccc(C)cc2)cc1 returned TRPML1 ag 2.1, gsp agonist 0%, ClpP mod -2.5%, gsp antagonist -20%, Menin-MLL FL inh 4.0 and TRPML1 blocker -9.
For CC1=C(C(=O)Nc2ccccc2C)C2(CCCC2)C(C(N)=O)C(=O)N1 (configuration not stated) the results were TRPML1 ag -0.7, gsp agonist -7%, ClpP mod -0.1%, gsp antagonist 8%, Menin-MLL FL inh 1.1 and TRPML1 blocker 12.
Screening Brc1c(CSc2nc3ccccc3s2)nc2ncccn12 returned TRPML1 ag -0.1, gsp agonist 19%, ClpP mod 28µM*, gsp antagonist inconclusive, Menin-MLL FL inh 5.1 and TRPML1 blocker 1.
Screening C=CCn1c(=NC(=O)CN2C(=O)CCC2=O)sc2cccc(OC)c21 returned TRPML1 ag -0.2, gsp agonist -55%[inhibitor], ClpP mod inconclusive, gsp antagonist 9%, Menin-MLL FL inh 2.0 and TRPML1 blocker -7.
For CN1CCN(C(=O)c2cc(S(=O)(=O)Nc3ccccc3F)c(Cl)cc2Cl)CC1 the results were TRPML1 ag 0.2, gsp agonist -1%[15.4 µM], gsp antagonist -4%, Menin-MLL FL inh 2.0 and TRPML1 blocker 10.
For Cn1c(=O)c2c(nc(SCCN3CCOCC3)n2Cc2cccc3ccccc23)n(C)c1=O the results were TRPML1 ag -0.3, gsp agonist 19%, ClpP mod 0.0%, gsp antagonist -15%, Menin-MLL FL inh 1.3 and TRPML1 blocker 8.
COc1ccc(C(=O)NC2CC3CCCC(C2)N3Cc2ccccc2)c(OC)c1 (configuration not stated) was read as TRPML1 ag -0.6, gsp agonist -5%, ClpP mod 4.0%, gsp antagonist -3%, Menin-MLL FL inh -1.8 and TRPML1 blocker 6.
COc1ccc(NS(=O)(=O)c2cccc(C(=O)N3CCN(Cc4ccc5c(c4)OCO5)CC3)c2)cc1 was read as TRPML1 ag -0.2, gsp agonist 0%, ClpP mod 2.5%, gsp antagonist -16% and TRPML1 blocker 11.
O=C(CCCn1c(=S)[nH]c2cc3c(cc2c1=O)OCO3)N1CCc2ccccc2C1 was read as TRPML1 ag -0.2, gsp agonist 1%, ClpP mod -1.8%, gsp antagonist 8%, Menin-MLL FL inh 1.2 and TRPML1 blocker 0.
COc1ccc(OCC(=O)Nc2ccccc2N2CCCCC2)cc1 was read as TRPML1 ag 1.3, gsp agonist 16%, ClpP mod 0.1%, gsp antagonist 20% and TRPML1 blocker 3.
Screening Cc1ccsc1C(=O)OCC(=O)NCCC1=CCCCC1 returned TRPML1 ag 1.0, gsp agonist -161%[inhibitor], ClpP mod -1.3%, gsp antagonist -10%, Menin-MLL FL inh 3.4 and TRPML1 blocker -6.
Screening Nc1nc(-c2nonc2N)no1 returned TRPML1 ag 0.4, gsp agonist -42%[inhibitor], gsp antagonist 5%, Menin-MLL FL inh 3.8 and TRPML1 blocker 17.
For Cc1cc2oc(=O)cc(C)c2c2occ(-c3ccc(Cl)cc3)c12 the results were TRPML1 ag -0.5, ClpP mod inconclusive and TRPML1 blocker 3.
CC(C)(O)C#Cc1ccc(C(=O)N2CCN(c3ccc(Cl)cc3)CC2)cc1 was read as TRPML1 ag -0.5, gsp agonist -8%[15.4 µM], gsp antagonist -6%, Menin-MLL FL inh -0.1 and TRPML1 blocker -13.
Screening CCc1ccc(C(=O)CSc2nc(-c3ccccc3)nc3c2CCCC3)cc1 returned TRPML1 ag 1.0, ClpP mod 0.9% and TRPML1 blocker -1.
Screening O=C(NCC(c1ccco1)N1CCCCC1)c1cnc(Cl)c(Cl)c1 (configuration not stated) returned TRPML1 ag 1.1, gsp agonist -2%, ClpP mod -2.4%, gsp antagonist -4% and TRPML1 blocker 21.
`Cc1nn(C(=O)c2cccc([N+](=O)[O-])c2C)c(C)c1S(=O)(=O)N1CCCCCC1` gave TRPML1 ag 0.8, ClpP mod -1.6% and TRPML1 blocker 16.
`CCOCCCNC(=O)/C(C#N)=C/c1ccc(Cl)c([N+](=O)[O-])c1` gave TRPML1 ag 0.8, gsp agonist -9%[15.4 µM], Menin-MLL FL inh -4.6 and TRPML1 blocker 14.
Screening COC(=O)c1c([N+](=O)[O-])c(OC)c(OC)c(OC)c1[N+](=O)[O-] returned TRPML1 ag 0.2, gsp agonist -1%, gsp antagonist -17%, Menin-MLL FL inh 3.6 and TRPML1 blocker -11.
CC(=O)c1ccc(N2CCN(S(=O)(=O)c3ccc(-c4cc(C)no4)s3)CC2)cc1 was read as TRPML1 ag 0.2&1.8, gsp agonist 18%, ClpP mod -0.1%&-2.2%, gsp antagonist -15%, Menin-MLL FL inh 3.1 and TRPML1 blocker -5&36.
For CC(=O)Nc1cccc(C(=O)N2CCN(S(=O)(=O)Cc3ccccc3)CC2)c1 the results were TRPML1 ag -0.1, gsp agonist inconclusive, gsp antagonist 2% and TRPML1 blocker -1.
`CC(=O)N1CCc2cc(S(=O)(=O)NCC(=O)NCc3ccc(Cl)cc3)ccc21` gave TRPML1 ag -0.7, gsp agonist inconclusive, ClpP mod -1.4%, gsp antagonist -4%, Menin-MLL FL inh 1.2 and TRPML1 blocker -1.
`O=C(CCN1C(=O)C2C3C=CC(C3)C2C1=O)N1CC(=O)N(CCc2ccccc2)C(=O)C1` (configuration not stated) gave TRPML1 ag 0.1, gsp agonist 0%, ClpP mod 1.1%, gsp antagonist 4%[15.4 µM], Menin-MLL FL inh 1.5 and TRPML1 blocker 1.
For Cc1ccc(CNC(=O)CC(C)S(=O)(=O)c2ccc3c(c2)NC(=O)CS3)o1 (configuration not stated) the results were TRPML1 ag 1.7, gsp agonist inconclusive, ClpP mod -3.7%, gsp antagonist 8%, Menin-MLL FL inh inconclusive and TRPML1 blocker -17.
`Cn1c(CNC(=O)CSc2n[nH]c(-c3ccccc3Cl)n2)nc2ccccc21` gave TRPML1 ag 0.3, ClpP mod 0.2% and TRPML1 blocker inconclusive.
Screening CN(C)c1cccc(C(=O)NNC(=O)C23CC4CC(CC(C4)C2)C3)c1 returned TRPML1 ag -0.1, gsp agonist -16%, ClpP mod -3.1%, gsp antagonist -9% and TRPML1 blocker 7.
COc1cc2c(cc1OC)C(C)N(C(=O)c1cc3c(=O)oc4ccc(C)cc4c3s1)CC2 (configuration not stated) was read as TRPML1 ag 4.2, gsp agonist -57%[inhibitor], ClpP mod -23%, gsp antagonist -24%, Menin-MLL FL inh 7.0 and TRPML1 blocker 5.
Cc1cccc(N2C(=O)C(CC(=O)Nc3ccc(F)cc3)N(C3CCCC3)C2=O)c1 (configuration not stated) was read as TRPML1 ag -0.3, ClpP mod -0.3% and TRPML1 blocker 6.
For O=C(CSc1ncn[nH]1)Nc1ccc(Cl)c(S(=O)(=O)N2CCOCC2)c1 the results were TRPML1 ag -0.8, gsp agonist -63%[inhibitor], ClpP mod 0.7%, gsp antagonist -7%, Menin-MLL FL inh -1.1 and TRPML1 blocker 9.

Screening data deposited in PubChem BioAssay by National Center for Advancing Translational Sciences (NCATS).

Rows are unselected, and some 2.1% of all compounds hit somewhere here.
